High-throughput results from PubChem BioAssay.
B2AR ag – human beta-2 adrenergic receptor agonism by FAP; 340,000 compounds, 0.43% hits; AID 504454; Am2.2-beta2AR cells, FAP receptor internalization, flow cytometry; reference of the scale not given here; response, % (test concentration not listed); P07550;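 active means response above a set limit, near 3 SD of response in nonfluorescent compounds, cut at about 42% in these data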;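 further: stock transfer was 100 nL into about 11 µL; a reference agonist was the positive control; negative values mostly stem from fluorescent compounds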
Target sequence (P07550 whole entry, looked up): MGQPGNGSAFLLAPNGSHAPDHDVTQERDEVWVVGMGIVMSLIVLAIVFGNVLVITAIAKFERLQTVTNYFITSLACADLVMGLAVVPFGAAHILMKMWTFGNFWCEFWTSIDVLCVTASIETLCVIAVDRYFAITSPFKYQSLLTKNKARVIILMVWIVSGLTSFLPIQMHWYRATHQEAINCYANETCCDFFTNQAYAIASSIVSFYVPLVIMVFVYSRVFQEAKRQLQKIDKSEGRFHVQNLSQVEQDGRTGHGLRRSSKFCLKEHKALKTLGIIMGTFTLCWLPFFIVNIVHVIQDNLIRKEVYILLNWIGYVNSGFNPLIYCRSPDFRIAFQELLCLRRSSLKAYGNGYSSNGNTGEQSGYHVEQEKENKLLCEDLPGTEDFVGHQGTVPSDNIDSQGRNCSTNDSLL
E coli growth – blocks Escherichia coli growth. AID 1053175. OD600 absorbance (no concentration beside the values). 330,000 compounds, 0.21% hits. OD600, 23 h; stronger effect = lower value;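 active means OD600 absorbance below the run mean of sample wells minus 3.6 SD, in any replicate, cut at about 0.56 in these data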;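 further: stock transfer was 300 nL into about 60 µL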
FGF22 binding – shifts melting point of recombinant human FGF22; Q9HCT0; recombinant FGF22 thermal shift, SYPRO orange fluorescence; percent of sucrose octasulfate shift, DMSO zero; calls only at 9.99 µM; 340,000 compounds, 1.5% hits;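 active means melting point raised past a set limit in the mean and every replicate; three in four hits are not shown here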
Target sequence (Q9HCT0 whole entry, looked up): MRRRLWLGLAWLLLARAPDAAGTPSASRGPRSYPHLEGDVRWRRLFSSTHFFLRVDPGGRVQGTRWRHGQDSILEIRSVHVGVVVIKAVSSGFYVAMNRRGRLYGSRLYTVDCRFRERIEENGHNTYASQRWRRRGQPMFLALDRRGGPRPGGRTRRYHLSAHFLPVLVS
LANA-H2B inh – blocks KSHV LANA binding to histone H2A/H2B. cell-free LANA-H2A/H2B peptide, fluorescence polarization. inhibition, % (no concentration beside the values). 320,000 compounds, 0.6% hits. Q9QR71; in the data active means inhibition mostly above about 10%, no sharp cut-off; inactive means mostly below about 6.7%;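 further: stock transfer was 7.5 nL into about 10 µL; 0% = median of vehicle wells and 100% = median of positive control wells; one replicate is shown; the record names a cut of 25% in any replicate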
ALR inh – human ALR oxidase inhibition via reduced H2O2 | P55789 | 290,000 compounds, 3.8% hits | AID 485317 | inhibition, % (no concentration beside the values) | purified ALR, DTT oxidation, H2O2 HRP-luminol luminescence;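 active means mean and each replicate at 75% or more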;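 further: stock transfer was 7.5 nL into about 7.5 µL; 0% = neutral wells and 100% = wells with inactivated enzyme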
UCH37 inh – blocks the human deubiquitinase UCH37 | Q9Y5K5 | purified proteasome/UCH37, Ub-AMC cleavage fluorescence | inhibition, % (test concentration not listed) | 330,000 compounds, 0.33% hits | AID 588478;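 active means mean of two replicates above 20%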;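 further: 0% = compound-free wells with enzyme and 100% = wells lacking proteasome; stock transfer was 100 nL into about 20 µL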
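Schedule: 30 min plus 25 min, room temperature / Material: human UCH37 within purified proteasomes / Technique: AMC fluorescence intensity at 355/460 nm / Buffer or medium: pH 7.4 Tris-HCl (50 mM) with ovalbumin, ATP-MgCl2, DTT / Controls: wells without proteasome as full block, compound-free enzyme plus substrate as uninhibited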
HNF4A DNA FP – change in binding of human HNF4 alpha to DNA | P41235 | HNF4a-FITC DNA binding, fluorescence polarization, 1 h | activity change, % at 10 µM | 360,000 compounds, 0.3% hits; in the data active means activity change above about 30%, passing the limit was not always enough;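 further: controls were the assay level and a saturating level of protein; the project sought stronger binding though the title names inhibitors; some compounds called inactive have numbers as strong as hits; positive values seem to mean higher polarization but the record does not say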
Target sequence (P41235 whole entry, looked up): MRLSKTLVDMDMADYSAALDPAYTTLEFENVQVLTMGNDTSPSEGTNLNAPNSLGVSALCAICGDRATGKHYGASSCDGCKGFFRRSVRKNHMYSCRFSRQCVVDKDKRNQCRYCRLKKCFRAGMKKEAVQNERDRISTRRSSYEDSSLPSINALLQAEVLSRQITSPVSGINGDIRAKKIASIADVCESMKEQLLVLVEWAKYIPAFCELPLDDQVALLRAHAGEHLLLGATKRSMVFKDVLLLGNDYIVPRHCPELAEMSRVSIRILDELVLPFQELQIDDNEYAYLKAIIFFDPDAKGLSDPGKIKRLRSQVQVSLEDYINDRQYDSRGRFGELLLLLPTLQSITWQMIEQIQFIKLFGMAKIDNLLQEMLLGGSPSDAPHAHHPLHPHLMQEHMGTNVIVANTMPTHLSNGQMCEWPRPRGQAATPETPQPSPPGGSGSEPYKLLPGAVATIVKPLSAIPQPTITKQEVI
The depositor's hits bear a star. A portion of the library, so the mix of outcomes need not match the whole.

Results for COc1ccc(N2CCN(C(=O)c3ccc(C)c(Cl)c3)CC2)cc1 ?
B2AR ag: 4; E coli growth: 0.61; LANA-H2B inh: -0.5; ALR inh: 13; UCH37 inh: 2.3; HNF4A DNA FP: -2.1

What do the screens show for `O=C(N/N=C\c1ccc(COc2ccc([N+](=O)[O-])cc2)o1)c1ccc(Cl)cc1`?
B2AR ag: 6; LANA-H2B inh: -5.9; ALR inh: -15; HNF4A DNA FP: 1.5

Results for Nc1ccc(-c2nc3ncccc3o2)c(O)c1 ?
B2AR ag: -10; E coli growth: 0.64; FGF22 binding: inactive; LANA-H2B inh: -4.6; UCH37 inh: inactive; HNF4A DNA FP: 1.0

How did O=S(=O)(c1ccccc1)N(CC1CO1)c1ccccc1 (centres undefined) do in these assays?
B2AR ag: 5; E coli growth: 0.68; FGF22 binding: inactive; LANA-H2B inh: 0.9; ALR inh: -8; UCH37 inh: -0.4; HNF4A DNA FP: -4.3

What do the screens show for `COc1ccc(S(=O)(=O)N2CCOCC2)cc1C(=O)N1CCCC1`?
B2AR ag: 0; E coli growth: 0.69; FGF22 binding: inactive; LANA-H2B inh: -1.0; ALR inh: -3; UCH37 inh: 3.5; HNF4A DNA FP: 0.5

What do the screens show for `Cc1oc(-c2ccc(Cl)cc2)nc1CN1CCCC(C(=O)NCc2ccco2)C1` (centres undefined)?
B2AR ag: -6; E coli growth: 0.67; LANA-H2B inh: -2.9; ALR inh: 5; UCH37 inh: 4.3; HNF4A DNA FP: -1.1

What do the screens show for `CCOC(=O)C1CCN(S(=O)(=O)c2cc(F)ccc2OC)CC1`?
B2AR ag: 6; E coli growth: 0.68; FGF22 binding: inactive; LANA-H2B inh: -0.6; UCH37 inh: -1.3; HNF4A DNA FP: -4.1

What do the screens show for `COc1ccccc1NC(=O)Cn1nc(-c2ccncc2)nc1SCC(=O)NC1CCCC1`?
B2AR ag: -9; E coli growth: 0.72; FGF22 binding: inactive; LANA-H2B inh: 1.5; ALR inh: -4; UCH37 inh: 3.1; HNF4A DNA FP: 0.2

Results for Cc1cccc(NC(=S)NCC23C=CC(O2)C2C(=O)N(c4ccc(Cl)cc4)C(=O)C23)c1 (centres undefined) ?
B2AR ag: 9; E coli growth: 0.68; LANA-H2B inh: -4.2; ALR inh: -1; UCH37 inh: 0.4; HNF4A DNA FP: 1.3

What do the screens show for `CC(Sc1nnc(-c2ccccc2Br)n1-c1cccc(C(F)(F)F)c1)C(N)=O` (centres undefined)?
B2AR ag: 2; E coli growth: 0.69; UCH37 inh: 3.5; HNF4A DNA FP: 2.2

How did CCC(C)N(C(=O)Cn1cnc2c1c(=O)n(C)c(=O)n2C)C1CCS(=O)(=O)C1 (centres undefined) do in these assays?
B2AR ag: -3; E coli growth: 0.69; FGF22 binding: inactive; LANA-H2B inh: -5.6; ALR inh: -8; UCH37 inh: 3.6; HNF4A DNA FP: 1.7

What do the screens show for `COCC(=O)NNC(=O)c1ccccc1OC`?
B2AR ag: -3; E coli growth: 0.71; FGF22 binding: inactive; LANA-H2B inh: -0.1; ALR inh: 0; UCH37 inh: 1.8; HNF4A DNA FP: 0.8

What do the screens show for `O=[N+]([O-])c1ccc(N2CCCCC2)c(Cl)c1N1CCCCC1`?
B2AR ag: 11; E coli growth: 0.78; LANA-H2B inh: 2.7; ALR inh: 0; UCH37 inh: 1.0; HNF4A DNA FP: -3.3

Results for Cc1ccc(CSCC(=O)N2CCN(c3ccc(F)cc3)CC2)cc1 ?
B2AR ag: -7; E coli growth: 0.71; LANA-H2B inh: 4.2; ALR inh: 1; UCH37 inh: 1.2; HNF4A DNA FP: -2.1

How did Cc1ccc(CCNC(=O)C2CC(c3ccccc3[N+](=O)[O-])=NO2)cc1 (centres undefined) do in these assays?
B2AR ag: -4; E coli growth: 0.65; FGF22 binding: inactive; LANA-H2B inh: 3.7; ALR inh: 2; UCH37 inh: -0.3; HNF4A DNA FP: -2.6

How did COc1ccc(S(=O)(=O)N2CCOCC2)cc1NC(=O)CSc1nnc(C2CC2)n1C do in these assays?
B2AR ag: -3; E coli growth: 0.65; FGF22 binding: inactive; LANA-H2B inh: -1.7; ALR inh: 1; UCH37 inh: 3.0; HNF4A DNA FP: 2.8

Results for COCCN(C(=S)Nc1cccc(OC)c1)C1CCN(C(C)C)CC1 ?
B2AR ag: 7; E coli growth: 0.69; FGF22 binding: inactive; LANA-H2B inh: -2.4; ALR inh: -17; UCH37 inh: 1.7; HNF4A DNA FP: -0.8

How did CCOC(=O)c1c(-c2ccccc2)n(C)c2ccc(O)cc12 do in these assays?
B2AR ag: -5; E coli growth: 0.71; LANA-H2B inh: -1.8; ALR inh: -1; UCH37 inh: -3.9; HNF4A DNA FP: 4.8

Results for COc1ccc(C)cc1-n1c(C)cc(C=O)c1C ?
B2AR ag: 7; E coli growth: 0.73; FGF22 binding: inactive; LANA-H2B inh: -5.0; UCH37 inh: 1.0; HNF4A DNA FP: 1.5

How did CC(=O)N1C(O)CC(C)N1c1ccccc1 (centres undefined) do in these assays?
B2AR ag: 0; E coli growth: 0.7; LANA-H2B inh: -3.3; ALR inh: -8; UCH37 inh: 1.7; HNF4A DNA FP: 4.3

How did O=C(CSc1ccccc1F)NNC(=O)c1cncc(Br)c1 do in these assays?
B2AR ag: -4; E coli growth: 0.69; FGF22 binding: inactive; LANA-H2B inh: 0.7; ALR inh: 3; UCH37 inh: 3.0; HNF4A DNA FP: -0.4

How did COc1ccc(N=CC2=C(O)CC(c3ccccc3)CC2=O)c(OC)c1 (centres undefined) do in these assays?
B2AR ag: -5; E coli growth: 0.69; LANA-H2B inh: -2.2; ALR inh: 30; UCH37 inh: -14; HNF4A DNA FP: 8.8

What do the screens show for `CCN(C(=S)Nc1cccnc1)c1ccccc1`?
B2AR ag: -3; E coli growth: 0.72; FGF22 binding: inactive; LANA-H2B inh: -3.7; ALR inh: 37; UCH37 inh: 0.9; HNF4A DNA FP: -2.3

What do the screens show for `CCN1CCN(Cc2c(O)ccc3c2O/C(=C\C=C\c2ccccc2OC)C3=O)CC1`?
B2AR ag: -1; E coli growth: 0.72; LANA-H2B inh: -43; ALR inh: 15; UCH37 inh: 14; HNF4A DNA FP: 47*

How did COc1ccc2c(c1)OC[C@H]1[C@H]2N2C(=O)CNC(=O)[C@@]2(C)[C@H]1c1ccccc1 do in these assays?
FGF22 binding: inactive; LANA-H2B inh: 5.6; ALR inh: -2; UCH37 inh: 3.0

How did Cc1ccc(C(=O)N/C(=C/c2ccc(Cl)cc2)C(=O)N2CCOCC2)cc1 do in these assays?
B2AR ag: 0; E coli growth: 0.61; FGF22 binding: inactive; LANA-H2B inh: 1.9; ALR inh: -2; UCH37 inh: 1.6; HNF4A DNA FP: -1.6

Results for Cc1cc(Cl)c2ccccc2n1 ?
B2AR ag: -2; E coli growth: 0.71; FGF22 binding: inactive; LANA-H2B inh: 1.3; ALR inh: -3; UCH37 inh: -0.8; HNF4A DNA FP: 1.0

What do the screens show for `CC(C)(C)c1ccc(C(=O)N2CCC(=O)N(C(CO)Cc3ccccc3)CC2)cc1` (centres undefined)?
B2AR ag: -1; E coli growth: 0.65; FGF22 binding: inactive; LANA-H2B inh: -3.0; UCH37 inh: 5.6; HNF4A DNA FP: -2.8

How did Cc1ccc(C(=O)C(C)OC(=O)c2cc(=O)[nH]c3ccccc23)cc1 (centres undefined) do in these assays?
B2AR ag: -7; E coli growth: 0.67; FGF22 binding: inactive; LANA-H2B inh: 12; ALR inh: -4; UCH37 inh: -24; HNF4A DNA FP: -0.1

How did Cc1ncc([N+](=O)[O-])n1CCOC(=O)c1ccccc1 do in these assays?
B2AR ag: 10; E coli growth: 0.63; LANA-H2B inh: -1.2; ALR inh: -7; UCH37 inh: 4.8; HNF4A DNA FP: 3.8

Continued; the last four above are carried over.
Results for Cc1cc(Cl)c2ccccc2n1 ?
B2AR ag: -2; E coli growth: 0.71; FGF22 binding: inactive; LANA-H2B inh: 1.3; ALR inh: -3; UCH37 inh: -0.8; HNF4A DNA FP: 1.0

What do the screens show for `CC(C)(C)c1ccc(C(=O)N2CCC(=O)N(C(CO)Cc3ccccc3)CC2)cc1` (centres undefined)?
B2AR ag: -1; E coli growth: 0.65; FGF22 binding: inactive; LANA-H2B inh: -3.0; UCH37 inh: 5.6; HNF4A DNA FP: -2.8

How did Cc1ccc(C(=O)C(C)OC(=O)c2cc(=O)[nH]c3ccccc23)cc1 (centres undefined) do in these assays?
B2AR ag: -7; E coli growth: 0.67; FGF22 binding: inactive; LANA-H2B inh: 12; ALR inh: -4; UCH37 inh: -24; HNF4A DNA FP: -0.1

How did Cc1ncc([N+](=O)[O-])n1CCOC(=O)c1ccccc1 do in these assays?
B2AR ag: 10; E coli growth: 0.63; LANA-H2B inh: -1.2; ALR inh: -7; UCH37 inh: 4.8; HNF4A DNA FP: 3.8

How did Cc1ccc(N2C(=O)CC(NNC(=O)c3cccc(S(=O)(=O)N4CCCC4)c3)C2=O)cc1 (centres undefined) do in these assays?
B2AR ag: 2; E coli growth: 0.64; FGF22 binding: inactive; LANA-H2B inh: 5.4; ALR inh: 95*; UCH37 inh: 4.4; HNF4A DNA FP: -1.0

How did Cc1ccc(C2C(C(=O)c3cccs3)=C(O)C(=O)N2c2ccc(S(N)(=O)=O)cc2)cc1 (centres undefined) do in these assays?
B2AR ag: -4; E coli growth: 0.68; FGF22 binding: inactive; LANA-H2B inh: -2.1; UCH37 inh: 8.6; HNF4A DNA FP: 4.3

How did O=C1N(Nc2ccccc2)C(c2ccc(Br)cc2)C12CCCC2 (centres undefined) do in these assays?
B2AR ag: 0; E coli growth: 0.76; LANA-H2B inh: 5.6; ALR inh: -8; UCH37 inh: -0.8; HNF4A DNA FP: 2.7

How did CCSc1nc(COC(=O)NC)c(COC(=O)NC)n1C do in these assays?
B2AR ag: -919; FGF22 binding: inactive; HNF4A DNA FP: 1.6

How did Cc1ccc(NC(=O)CS(=O)CC(=O)NCC2OCCc3ccccc32)c(C)c1 (centres undefined) do in these assays?
B2AR ag: 22; E coli growth: 0.67; LANA-H2B inh: 1.9; ALR inh: -76; UCH37 inh: 4.8; HNF4A DNA FP: 1.8

How did COc1ccc(C2=Nn3c(nnc3-c3cccnc3)SC2)cc1OC do in these assays?
B2AR ag: -7; E coli growth: 0.68; LANA-H2B inh: 1.6; UCH37 inh: 7.5; HNF4A DNA FP: 2.6

Results for O=C(OCC(=O)N1CCN(C(=O)c2ccco2)CC1)c1ccccc1C(=O)c1ccc(Cl)cc1 ?
B2AR ag: -6; E coli growth: 0.72; LANA-H2B inh: 2.5; ALR inh: -3; UCH37 inh: -0.9; HNF4A DNA FP: 1.2

Results for Cc1ccc(C(=O)C(OC(=O)c2cnccn2)c2ccccc2)cc1C (centres undefined) ?
B2AR ag: 4; E coli growth: 0.72; FGF22 binding: inactive; LANA-H2B inh: 1.0; ALR inh: -1; UCH37 inh: 0.0; HNF4A DNA FP: 0.4

What do the screens show for `CC(Sc1nnc(-c2ccco2)n1N)C(=O)NCC1CCCO1` (centres undefined)?
B2AR ag: 5; E coli growth: 0.68; FGF22 binding: inactive; LANA-H2B inh: 1.9; ALR inh: 10; UCH37 inh: 0.0; HNF4A DNA FP: -0.7

How did COc1cc(CC2COC(c3ccc(O)c(OC)c3)C2COC(C)=O)ccc1O (centres undefined) do in these assays?
B2AR ag: -4; E coli growth: 0.71; FGF22 binding: inactive; LANA-H2B inh: -0.8; ALR inh: 82*; UCH37 inh: 3.6; HNF4A DNA FP: -18

Results for COc1ccc(N2CC(O)=C(c3nc(C)cs3)C2=N)cc1 ?
B2AR ag: 2; E coli growth: 0.7; FGF22 binding: inactive; LANA-H2B inh: -3.9; ALR inh: 1; UCH37 inh: 8.0; HNF4A DNA FP: -2.0

What do the screens show for `Cc1cc(C)nc(NC2=NCC(=O)N2c2cc(Cl)cc(Cl)c2)n1`?
B2AR ag: -10; E coli growth: 0.69; LANA-H2B inh: -0.9; ALR inh: -4; UCH37 inh: -1.6; HNF4A DNA FP: 0.9
